Mtb growth: M. tuberculosis H37Rv growth inhibitors, H37Rv strain (AID 1626) | actives 0.95% (n = 220,000) | M. tuberculosis H37Rv growth inhibition; higher % means a stronger effect | inhibition, % at 10 µM; hits with a dose series show IC50 in µM;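 active = confirmed in a dose series; inconclusive = inhibition above 80% but not taken into the dose series; inactive = below 80% or under 30% at every dose of the series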;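 also: bacteria incubated seven days before Alamar blue readout; 0% = bacteria only wells and 100% = bacteria with antibiotic wells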
YopH inh: blocks Yersinia enterocolitica YopH tyrosine phosphatase. fluorescence Ex485/Em525. inhibition, %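 (about 10 µM by stock and volumes)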. actives 0.16% (n = 140,000);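 active = inhibition of 50% or more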;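 also: controls were vehicle for no effect and minimum signal wells for full effect; inactives centre near -20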
Mtb bLac sens: beta-lactam sensitization of Mtb H37Rv; M. tuberculosis H37Rv growth with meropenem, percent inhibition; hits of this screen are not shown here; inhibition, % at 25 µM; actives 0.27% (n = 330,000); AID 434955;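 active = about 74% or more and at least 40 points above the plate without the antibiotic, then above 30% in a dose series; inconclusive = first-round hits that could not be retested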;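 also: growth measured after seven days incubation then overnight dye step; 0% = bacteria only wells and 100% = bacteria with antibiotic; twin plates without the antibiotic show which effects depend on it; some results filed as inactive read as strong as hits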
RecA splice inh: inhibitors of M. tuberculosis RecA intein splicing; P9WHJ3; cell-free RecA intein splicing, fluorescence; inhibition, %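 (about 9 µM by stock and volumes)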; actives 0.75% (n = 290,000); in the data active = inhibition above about 30%; inconclusive = no clear call, values can overlap the other calls;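 also: 0% = vehicle wells and 100% = reference inhibitor control wells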
Target sequence (P9WHJ3 whole entry, looked up, canonical isoform): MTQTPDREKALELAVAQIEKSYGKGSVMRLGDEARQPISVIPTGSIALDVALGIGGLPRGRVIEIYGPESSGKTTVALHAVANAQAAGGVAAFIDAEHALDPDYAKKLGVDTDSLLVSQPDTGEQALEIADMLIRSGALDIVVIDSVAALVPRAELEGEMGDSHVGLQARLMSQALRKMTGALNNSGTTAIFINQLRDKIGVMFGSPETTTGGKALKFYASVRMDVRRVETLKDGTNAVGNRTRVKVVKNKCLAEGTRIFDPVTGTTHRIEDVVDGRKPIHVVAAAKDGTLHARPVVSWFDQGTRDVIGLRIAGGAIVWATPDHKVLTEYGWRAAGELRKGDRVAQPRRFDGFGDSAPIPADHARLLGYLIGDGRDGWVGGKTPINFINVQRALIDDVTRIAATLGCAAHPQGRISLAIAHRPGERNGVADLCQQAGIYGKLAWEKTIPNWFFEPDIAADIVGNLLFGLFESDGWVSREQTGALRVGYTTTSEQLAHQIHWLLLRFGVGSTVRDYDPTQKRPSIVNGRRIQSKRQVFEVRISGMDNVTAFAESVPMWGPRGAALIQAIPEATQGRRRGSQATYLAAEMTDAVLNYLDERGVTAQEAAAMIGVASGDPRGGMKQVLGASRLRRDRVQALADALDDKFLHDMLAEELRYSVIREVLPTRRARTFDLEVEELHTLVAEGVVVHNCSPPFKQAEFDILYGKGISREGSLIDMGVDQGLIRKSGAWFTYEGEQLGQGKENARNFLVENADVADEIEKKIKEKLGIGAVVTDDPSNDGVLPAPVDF
Arbovirus anti: antivirals against arbovirus infection; arbovirus infection cell-based antiviral screen; inhibition, % at 10 µM; actives 0.37% (n = 200,000);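 active = inhibition from about 30%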;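 also: bluetongue infection of BSR cells; cell survival read as ATP light after 72 h; 0% = infected wells without compound and 100% = uninfected wells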
* = called active by the depositor; ? = inconclusive; . = no result given; & = joins results of further samples. These rows are one share of the data; count on the stated rates, not on these rows.

SMILES | Mtb growth | YopH inh | Mtb bLac sens | RecA splice inh | Arbovirus anti
Cc1ccccc1C(=O)NCCNC(=O)c1ccco1 | . | . | -12 | 1.7 | .
CCOc1ccccc1NC(=O)C(NCC1(N2CCCCC2)CCCCC1)c1ccccc1 (stereo not drawn) | 7% | . | 9 | 1.2 | 6
O=C(NNC(=O)c1ccccc1F)c1ccc(-c2ccc(Cl)cc2)o1 | . | . | 89 | 3.2 | .
Cc1ccc(N2CC(C(=O)OCC(=O)C(C)(C)C)CC2=O)cc1C (stereo not drawn) | 0% | -48 | 2 | -0.5 | 20
Cc1ccc(C(C#N)c2ccc(Cl)nn2)cc1 (stereo not drawn) | 3% | . | -2 | -7.1 | 6
CC(=O)c1ccc(OCCOc2ccc([N+](=O)[O-])cc2)cc1 | . | . | 15 | 3.5 | .
CCCCCCN1C=CC(=C/C=C(\C#N)C(=O)OCC)C=C1 | 6% | -11 | 4 | -6.8 | 3
NC(=O)Cn1c2[n+](c3ccccc31)CC(O)CS2 (stereo not drawn) | 5% | -23 | -13 | -1.6 | 8
O=C(CN1C(=O)NC2(CCCCC2)C1=O)NCCC1=CCCCC1 | -10% | -36 | 4 | 0.1 | 1
CC(=O)Nc1ccc(OCC(=O)c2ccc(C)cc2C)cc1 | -12% | -6 | -19 | -1.6 | 8
COc1ccnc2c1c(=O)n(Cc1ccccc1Cl)c(=O)n2C | . | . | -8 | -4.4 | .
CCCCc1c(C(=O)O)cc(OC)cc1C(=O)O | 1% | -35 | 7 | -2.0 | 8
CCOC(=O)Cc1c(C)nc(-c2ccccc2)[nH]c1=O | 5% | -31 | 0 | -1.1 | 0
Cc1cc(C(F)(F)F)nn1CCCNC(=O)c1cnccn1 | -4% | -38 | 1 | -2.0 | 2
CCOc1ccc(C(C)=O)cc1COC(=O)CCc1cc(OC)c(OC)c(OC)c1 | . | . | -6 | 3.6 | .
C#Cc1ccc([C@@H]2C=C(C(=O)O)O[C@H](OCc3ccc(CO)cc3)C2)cc1 | -2% | . | 0 | -0.3 | 3
O=C(C[n+]1cccc(NC(=O)c2ccccc2)c1)c1cccc([N+](=O)[O-])c1 | -1% | . | -1 | 2.5 | 11
CCOc1cccc(CN2CCCC(C(=O)c3cc(Cl)ccc3OC)C2)c1O (stereo not drawn) | . | . | 4 | 2.0 | .
c1nc(COc2nsnc2N2CCOCC2)cs1 | 4% | -11 | 0 | 0.1 | -1
C=CCN1CC[C@]23c4c5ccc(O)c4O[C@H]2C(=O)CC[C@@]3(O)[C@H]1C5 | -4% | . | -4&4 | -3.9 | 3
CC(=O)C1=C(O)CC(C)(C)CC1=NCCc1nc2ccccc2[nH]1 | . | . | 1 | 6.0 | -2
CCOC(=O)/C(C#N)=C1/SC(C)C(=O)N1c1ccc(Br)cc1 (stereo not drawn) | -3% | 0 | -10 | 32* | -1
O=C(COc1ccc(Cl)cc1)Nc1ncccn1 | 5% | -26 | 34 | 0.8 | -4
Cc1nc2ccccc2c(=O)n1NS(C)(=O)=O | -5% | -20 | -8 | -3.2 | 2
CC(C)c1ccc(NC(=O)CCN2C(=O)c3ccc([N+](=O)[O-])cc3C2=O)cc1 | 5% | -29 | -3 | -2.2 | -2
COCc1nnc(NC(=O)C2CC(=O)N(C3CCCC3)C2)s1 (stereo not drawn) | . | . | 1 | -1.2 | .
O=C(O)CSc1ccc(NC(=O)Nc2ccccc2F)cc1 | -11% | . | -9 | -0.9 | .
Cc1ccc(OCCCC(=O)NC(C)c2ccccc2)c(C)c1 (stereo not drawn) | -2% | . | -2 | 3.2 | 2
CCc1nc2ccccc2c(C(=O)NCc2ccc(OC)cc2)c1C | 0% | . | 0 | 1.9 | -1
O=C(Nc1cccc2cccnc12)c1cccc(N2C(=O)CCC2=O)c1 | -11% | -30 | 11 | 3.2 | 6
CN1CCc2nc(SCc3ccc(Cl)cc3)c(C#N)c(-c3cccs3)c2C1 | 4% | -15 | . | 60* | .
C/C(=N\NC(=O)c1ccccn1)C12CC3CC(CC(C3)C1)C2 | 50% | -7 | 99 | -1.0 | 3
CCC(=Nc1ccc2c(c1)CCC2)c1c(O)n(C)c(=O)n(C)c1=O | 74% | . | 44 | -0.7 | .
CC(=O)c1cccc(NC(=O)c2ccc3c(c2)CCN3S(=O)(=O)c2ccccc2)c1 | . | . | 1 | 5.4 | .
N#C/C(C(=O)N1CCOCC1)=c1/s/c(=C\c2ccccn2)c(=O)n1-c1ccccc1 | 8% | . | -10 | -1.6 | 2
O=C(CCc1nnc2ccc(NCc3ccco3)nn12)Nc1ccc(F)cc1F | . | . | 8 | 1.1 | .
O=C(NC1CC2CCCC(C1)N2Cc1cccs1)N1CCOCC1 (stereo not drawn) | 1% | -34 | ? | 1.9 | -1
CC(C)(C)c1ccc(N2C(=O)CC(c3ccccc3)C2=O)cc1 (stereo not drawn) | . | . | 14 | -0.1 | .
CC1(c2nnc(-c3ccncc3)o2)CC(c2ccc(F)cc2)=NO1 (stereo not drawn) | -21% | . | 1 | -1.7 | .
C=CCNS(=O)(=O)c1ccc(C(=O)OCc2cc(=O)oc3cc(OC)ccc23)cc1 | . | . | 8 | -3.6 | .

Arranged by count of non-hydrogen atoms (ascending): some entries from above
SMILES | Mtb growth | YopH inh | Mtb bLac sens | RecA splice inh | Arbovirus anti
Cc1nc2ccccc2c(=O)n1NS(C)(=O)=O | -5% | -20 | -8 | -3.2 | 2
O=C(COc1ccc(Cl)cc1)Nc1ncccn1 | 5% | -26 | 34 | 0.8 | -4
O=C(O)CSc1ccc(NC(=O)Nc2ccccc2F)cc1 | -11% | . | -9 | -0.9 | .
CC(=O)c1cccc(NC(=O)c2ccc3c(c2)CCN3S(=O)(=O)c2ccccc2)c1 | . | . | 1 | 5.4 | .

New compounds follow.
SMILES | Mtb growth | YopH inh | Mtb bLac sens | RecA splice inh | Arbovirus anti
CCOC(=O)CNC(=O)Nc1cccc(Cl)c1C | -5% | -9 | -5 | . | 6
CCOC(=O)N/N=C\c1ccc(OC(=O)c2ccc3c(c2)OCO3)cc1 | 8% | . | 28 | 1.6 | 4
O=S(=O)(c1cc(F)cc(F)c1)N1CCN(c2ncccn2)CC1 | -3% | -5 | -14 | -5.5 | 8
CC(C)C[C@@H](CO)N1CCNCCC1=O | . | . | -3 | -3.5 | .
CC(C)CN(C(=O)CN1CCN(c2ccccc2O)CC1)c1c(N)n(CC(C)C)c(=O)[nH]c1=O | 2% | -15 | 2 | -3.8 | 7
CC(=O)c1cc2c(cc1NS(=O)(=O)c1ccc(C)cc1)OCO2 | -5% | -9 | -8 | -2.3 | -2
COc1ccc(/C=N\NC(=O)c2ccccc2OC)cc1COc1c(F)c(F)c(F)c(F)c1F | . | . | 1 | 15 | .
O=C(CN1C2CCC1CC(NC(=O)Nc1ccccc1)C2)NCc1ccco1 (stereo not drawn) | -11% | -10 | 6 | 1.3 | 5
Cc1ccc(NNC(=O)Nc2ccc(Cl)cc2)nn1 | -11% | . | -6 | 1.8 | .
Cc1ccccc1NC(=S)N(CCN1CCCCC1)Cc1ccco1 | 5% | . | -7 | 0.2 | 13
CC(C)C(C(=O)NCC1CCCO1)N(C(=O)CNS(=O)(=O)c1ccc(F)cc1)C1CCCCC1 (stereo not drawn) | . | . | -6 | -2.2 | .
COc1ccc(C(=O)NC(=S)Nc2cccc(Cl)c2N2CCOCC2)cc1[N+](=O)[O-] | 4% | -22 | -2 | -1.0 | -3
O=c1c2c(-c3cccc([N+](=O)[O-])c3)ccnc2[nH]n1-c1ccccc1 | . | . | 31 | -3.7 | .
COc1ccc(CCC(=O)Nc2cc3c4c(c2)CC(=O)N4CCC3)cc1 | . | . | -11 | 9.1 | .
C=CCNC(=O)COC(=O)COc1ccc(Cl)cc1 | -4% | . | -4 | 0.8 | 8
CC1CCCC(C)N1C(=O)COC(=O)c1cc([N+](=O)[O-])ccc1N1CCOCC1 (stereo not drawn) | . | . | -4 | 0.6 | .
CCCCCCN1C2=NCCN2c2ccccc21 | -1% | 8 | -5 | -0.7 | 12
CN1N=C(C(=O)N2CCc3c([nH]c4ccccc34)C2c2ccccc2Cl)CCC1=O (stereo not drawn) | 15% | . | 3 | 2.9 | -4
Cc1n[nH]c(C)c1Cc1c(F)cccc1Cl | -1% | . | 58 | 2.9 | .
COc1ccc(C(=O)NC2CCSC2=O)cc1 (stereo not drawn) | -6% | -22 | 2 | -5.0 | 3
Cc1cc[n+](CC(=O)Nc2ccccc2)cc1 | . | . | -7 | 3.1 | .
CCOc1cc(/C=C2/C(=N)N3N=C(C)SC3=NC2=O)ccc1OS(=O)(=O)c1ccc(C)cc1 | . | . | 3 | 2.0 | .
CC(C)=CCN1CCN(CCCc2ccccc2)CC1CCO (stereo not drawn) | . | . | -3 | -1.0 | .
Cc1cc(C)c2nc(N3CCCC(C(=O)NCCN4CCOCC4)C3)sc2c1 (stereo not drawn) | -7% | -7 | 7 | 1.2 | -7
Cc1ccc(NC(=O)CSc2nnc(CNC(=O)c3ccco3)o2)cc1Cl | . | . | 4 | -1.2 | .
Cc1ccc(C)c(OCC(=O)Nc2ccccc2C(=O)N2CCOCC2)c1 | . | . | -8 | -0.7 | .
OCC[C@@H]1C[C@H](O)[C@@H](O)[C@@]2(CCCO2)O1 | -3% | . | -7 | 0.1 | .
COc1cc(C(=O)O[C@H]2C/C(C)=C/CC[C@]3(C)O[C@@H]3C(O)C2C(C)C)cc(OC)c1OC (stereo partly drawn) | . | . | -6 | 2.7 | .
c1ccc(CC2CCN(C(c3cccs3)c3nnnn3C3CCCC3)CC2)cc1 (stereo not drawn) | 6% | -11 | 5 | 11 | 2
CCCC1CCc2c(sc(N)c2C(N)=O)C1 (stereo not drawn) | 12% | 2 | -1 | -15 | 3
CCOC(=O)c1sc(N)c(C(=O)OCC)c1COC(=O)C1CC(=O)N(Cc2ccco2)C1 (stereo not drawn) | 6% | -5 | 0 | 7.3 | -30
CC(C)c1ccc(NC(=O)c2ccc3c(c2)CCN3S(C)(=O)=O)cc1 | . | . | 12 | 1.5 | .
Cc1sc(NC(=O)Cn2c(=O)oc3ccccc32)nc1-c1ccc(Cl)cc1 | 0% | -23 | 5 | 1.0 | 0
CCCN1C(=O)c2cc(C(=O)Nc3ccc(OC)c(OC)c3)ccc2C1Nc1ccc(OC)c(OC)c1 (stereo not drawn) | 4% | . | -1 | -0.8 | 1
CCOc1ccc(NC(=O)CCN2CCN(S(=O)(=O)c3ccc(F)cc3)CC2)cc1 | . | . | -8 | 3.0 | .
C/C(=N/NC(=O)CNC(=O)/C=C/c1ccco1)c1ccc(Cl)cc1 | 6% | . | -4 | 2.1 | 0
Cc1cc(NS(=O)(=O)c2ccc(NC(=O)COc3ccccc3[N+](=O)[O-])cc2)no1 | . | . | 1 | -1.4 | .
CCn1c(NCCCO)nc2c(c1=O)C(C)(CC)Cc1ccccc1-2 (stereo not drawn) | 7% | . | 0 | 0.1 | .
C=C(C)C(=O)N1CC2(CC(c3cccc(NC(=O)COc4ccc(Cl)cc4)c3)=NO2)C[C@@H]1C(N)=O (stereo partly drawn) | -3% | . | -11 | 0.7 | .
Cc1ccc(NC(=O)c2oc3ccccc3c2NC(=O)C2CC2)cc1 | . | . | ? | -0.6 | .
Cc1cc([N+](=O)[O-])nn1Cc1noc(C(=O)NCCc2ccccn2)n1 | . | . | 5 | 0.2 | .
Cc1ccc(C(=O)Nc2c(C)n(C)n(-c3ccccc3)c2=O)cc1S(=O)(=O)N1CCOCC1 | 0% | 4 | -6 | 1.4 | .
O=C(CCN1C(=O)c2ccccc2C1=O)NCc1ccncc1 | -4% | -20 | 9 | -2.3 | -3
COCCN(C(=O)CSc1nnc(-c2cccs2)n1N)c1c(N)n(Cc2ccccc2)c(=O)[nH]c1=O | . | . | -7 | -1.5 | .
Cc1cc(Br)ccc1NC(=O)CN1CCN(c2ccccn2)CC1 | . | . | -2 | 0.8 | .
c1ccc(Sc2cnc3ccccc3n2)cc1 | 7% | -14 | -3 | 2.5 | 6
Cc1ccc(N(CC(=O)NCc2ccccn2)S(=O)(=O)c2ccccc2)cc1Cl | . | . | 0 | 1.6 | .
COc1cc2c(cc1OC)C(c1ccccc1)CC2=O (stereo not drawn) | 5% | . | . | 2.3 | .
CN1CCN(CCC(=O)Nc2ccc3c(c2)OCO3)CC1 | -4% | -99 | 4 | -1.1 | 5

Retrieved by compound from the list above, four records:
SMILES | Mtb growth | YopH inh | Mtb bLac sens | RecA splice inh | Arbovirus anti
CCOc1cc(/C=C2/C(=N)N3N=C(C)SC3=NC2=O)ccc1OS(=O)(=O)c1ccc(C)cc1 | . | . | 3 | 2.0 | .
O=C(NNC(=O)c1ccccc1F)c1ccc(-c2ccc(Cl)cc2)o1 | . | . | 89 | 3.2 | .
O=C(CN1C(=O)NC2(CCCCC2)C1=O)NCCC1=CCCCC1 | -10% | -36 | 4 | 0.1 | 1
Cc1ccc(OCCCC(=O)NC(C)c2ccccc2)c(C)c1 (stereo not drawn) | -2% | . | -2 | 3.2 | 2

High-throughput results deposited in PubChem by several laboratories.
